# Source: PubChem
# Ecoli growth – E. coli growth inhibition, primary screen, OD600. Escherichia coli growth, 23 h; hits give low values. AID 1053175, 2014. hit rate 0.21% among 330,000. OD600 absorbance (concentration not given with the values);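 active = OD600 absorbance below the run mean of sample wells minus 3.6 SD, in any replicate, cut at about 0.56 in these data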;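 note: stock transfer was 300 nL into about 60 µL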
# Vif TR-FRET – inhibitors of Vif binding to APOBEC3G peptide, primary screen, biochemical, TR-FRET, GST-Vif 1-94, biotin-A3G peptide, dose response retest (AID 1117319). Virion infectivity factor (Human immunodeficiency virus type 1 group M subtype B (isolate …. hit rate 0.57% among 260,000. inhibition, %, or IC50 in µM where a hit was titrated. TR-FRET GST-Vif / biotin-A3G peptide binding; higher % means a stronger effect; test concentration not given here; strong numbers were not always called active;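 active = above the screen mean plus three standard deviations and confirmed in dose response; inconclusive = results disagree or hit not tested in dose response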;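 note: Vif residues 1-94 fused to GST binding biotinylated APOBEC3G peptide 110-148; 0% = full assay without inhibitor and 100% = GST in place of GST-Vif; retest series ran down from 100 µM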
# Ecoli rRNA inh – reduced GFP signal of wild-type E. coli, primary screen, bacterial rRNA inhibitor project, GFP/RFP fluorescence, OD600, single point; E. coli WT GFP vs humanized-ribosome RFP mutants, 24 h; hits give low values; DMSO median 0, no signal -100; GFP signal change (wild-type ribosome), % (test concentration not listed); hit rate 1.6% among 350,000; AID 720706, 2013;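 active = significant combined selectivity score with lowered wild-type GFP, culture density cut under 30%, mutant RFP and density less affected; inactive = any of these conditions unmet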; note: one replicate is shown; some compounds called inactive have numbers as strong as hits
# FGF22 binding – binders of human FGF22 protein, primary screen, FGF22 synaptogenesis inhibitor project, biophysical, thermal shift, single point | hit rate 1.5% among 340,000 | Fibroblast growth factor 22 (Homo sapiens), Q9HCT0 | recombinant FGF22 thermal shift, SYPRO orange fluorescence; percent of sucrose octasulfate shift, DMSO zero | AID 651658, 2012 | calls only at 9.99 µM;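 active = melting point raised past a set limit in the mean and every replicate; inconclusive = no clear call; three in four hits are not shown here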
# Target sequence (Q9HCT0 whole entry, looked up): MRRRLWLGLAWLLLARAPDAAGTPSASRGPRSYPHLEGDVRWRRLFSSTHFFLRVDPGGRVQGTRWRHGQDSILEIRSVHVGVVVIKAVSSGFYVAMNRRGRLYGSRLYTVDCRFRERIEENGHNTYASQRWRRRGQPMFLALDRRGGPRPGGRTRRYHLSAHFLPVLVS
# HNF4A DNA FP – change in binding of human HNF4A to DNA, primary screen, biochemical, fluorescence polarization, FITC-DNA; hit rate 0.3% among 360,000; activity change, % at 10 µM; 1 h; AID 1224865, 2016; Hepatocyte nuclear factor 4-alpha (Homo sapiens), P41235; in the data active = activity change above about 30%, passing the limit was not always enough;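 note: controls were the assay level and a saturating level of protein; the project sought stronger binding though the title names inhibitors; some compounds called inactive have numbers as strong as hits; positive values seem to mean higher polarization but the record does not say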
# MLL AF4-AF9 inh – inhibitors of AF4 peptide binding to AF9, primary screen, biochemical, AlphaScreen, biotin-AF4 peptide, FLAG-AF9, single point; inhibition, % at 10 µM; hit rate 0.47% among 350,000; AID 651704, 2012;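 active = every replicate reaching a set inhibition limit, whatever the replicate mean, cut at about 25% in these data; inconclusive = mean inhibition reaches that limit but some replicates miss it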;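 note: 0% = plate neutral control median and 100% = total signal loss; the record names both 10 and 1 µM as test concentration; the first replicate is given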
# Target sequence (P42568 whole entry, looked up): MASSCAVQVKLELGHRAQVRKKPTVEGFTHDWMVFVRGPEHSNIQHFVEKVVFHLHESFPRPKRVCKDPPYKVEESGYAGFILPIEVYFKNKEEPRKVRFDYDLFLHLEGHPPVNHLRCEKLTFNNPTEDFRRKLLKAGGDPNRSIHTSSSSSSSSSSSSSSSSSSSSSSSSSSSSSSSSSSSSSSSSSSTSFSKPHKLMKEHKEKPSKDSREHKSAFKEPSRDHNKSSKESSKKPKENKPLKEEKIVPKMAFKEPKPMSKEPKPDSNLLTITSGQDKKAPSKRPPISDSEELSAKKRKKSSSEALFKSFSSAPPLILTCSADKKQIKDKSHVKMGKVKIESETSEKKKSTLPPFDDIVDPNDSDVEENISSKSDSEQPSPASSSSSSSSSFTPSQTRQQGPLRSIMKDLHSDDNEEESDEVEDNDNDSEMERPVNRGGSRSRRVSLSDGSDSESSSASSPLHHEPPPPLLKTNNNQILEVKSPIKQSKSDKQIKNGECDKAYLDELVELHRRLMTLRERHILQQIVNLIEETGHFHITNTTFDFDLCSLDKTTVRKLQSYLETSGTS
# ALR inh – inhibitors of human ALR sulfhydryl oxidase, primary screen, biochemical, H2O2 detection, HRP-luminol luminescence, single point. FAD-linked sulfhydryl oxidase ALR (Homo sapiens), P55789. purified ALR, DTT oxidation. inhibition, % (no concentration beside the values). hit rate 3.8% among 290,000;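 active = mean and each replicate at 75% or more; inconclusive = only one of the two met; inactive = neither met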;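 note: stock transfer was 7.5 nL into about 7.5 µL; 0% = neutral wells and 100% = wells with inactivated enzyme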
# Target sequence (P55789 whole entry, looked up): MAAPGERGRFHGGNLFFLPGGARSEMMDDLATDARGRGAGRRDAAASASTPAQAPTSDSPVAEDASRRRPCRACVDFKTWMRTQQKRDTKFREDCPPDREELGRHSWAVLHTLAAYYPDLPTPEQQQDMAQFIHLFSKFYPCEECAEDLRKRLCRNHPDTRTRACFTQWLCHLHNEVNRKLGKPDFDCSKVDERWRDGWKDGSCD
# Ecoli rRNA inh OD600 – further read-out of Ecoli rRNA inh, marked with its call; OD600 change, %; measured here: OD600 growth;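 optical density of the mix in the first replicate; 0 = DMSO median and -100 = no signal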
# Ecoli rRNA inh RFP – also measured in Ecoli rRNA inh; calls as there; RFP signal change, %; measured here: RFP humanized mutant strains;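 first replicate; 0 = DMSO median and -100 = no signal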
# Active calls of the source: *; i = inactive; u = inconclusive; x = not tested or not shown; & = joins results of further samples. Some of the compounds tested; the hit share may differ from the screen's.
SMILES,Ecoli growth,Vif TR-FRET,Ecoli rRNA inh,Ecoli rRNA inh OD600,Ecoli rRNA inh RFP,FGF22 binding,HNF4A DNA FP,MLL AF4-AF9 inh,ALR inh
Cc1cc(O)c(C=Nc2cccc(Cl)c2)c(=O)o1,0.73,13%,7,8,5.9,i,5.5,6.1,x
CCOC(=O)C1=C(C)N=c2s/c(=C\c3ccc(OCC(=O)O)cc3)c(=O)n2C1c1ccc(Cl)cc1 (stereo not drawn),x,8%,4,5,3.7,i,5.7,9.4,-4
COc1ccc(NC(=O)C2Cc3c(-c4ccc(NC(C)=O)cc4)ccnc3O2)cc1 (stereo not drawn),x,x,-4,-4,-5.2,i,-4.5,-2.9,x
COc1ccc(NC(=O)c2cc(C3CCCCN3C(=O)c3ccc(C#N)cc3)on2)c(C)c1 (stereo not drawn),x,x,2,1,1.3,i,1.9,-0.5,x
COc1ccc(-c2nc(NC(=O)c3ccccc3)sc2-c2ccc([N+](=O)[O-])cc2)cc1,0.71,-5%,5,6,3.5,i,5.2,3.1,-3
c1csc(C(c2nnnn2C2CCCCC2)N2CCN(c3nc4ccccc4s3)CC2)c1 (stereo not drawn),0.72,0%,x,x,x,x,0.6,x,x
Cc1cc(C)c(C)c(OCC(=O)N2CCCCCC2)c1,0.66,5%,x,x,x,x,-1.1,x,16
Cc1ccc(C)c(/C=C/C(=O)c2ccccc(=O)c2O)c1,0.67,x,x,x,x,x,1.9,x,97*
O=C(Nc1ccc(F)cc1)N1C[C@@H]2[C@H](c3ccccc31)[C@H](CO)N2C(=O)c1ccccc1,x,x,2,3,0.1,i,x,0.8,x
COc1ccc(-c2cc(=O)oc3cc(OCC(=O)N(C)C4CCS(=O)(=O)C4)ccc23)cc1 (stereo not drawn),0.59,-1%,0,1,0.0,i,3.3,3.3,5
COc1ccc(N(C)S(=O)(=O)c2c(C)noc2C)c(OC)c1,0.69,3%,-2,-5,1.9,x,-2.2,0.4,9
CCC(=O)Nc1ccc(NC(=O)CSc2nnnn2-c2cccnc2)cc1C,0.66,3%,8,7,2.0,i,-3.1,0.6,-36
Cc1cccc(N2C(=O)CC(Sc3nc(C)cc(C)n3)C2=O)c1 (stereo not drawn),0.74,-1%,x,x,x,x,-1.8,x,-1
COc1cc(OC)cc(C(=O)N[C@H](C(=O)Nc2nc(-c3ccc(F)c(F)c3)cs2)C(C)C)c1,x,2%,14,13,1.1,i,1.1,-3.0,-6
C[C@@H]1CN([C@H](C)CO)C(=O)c2cccc(NC(=O)c3ccncc3)c2O[C@H]1CN(C)C(=O)Nc1ccc(C(F)(F)F)cc1,x,x,-3,-2,-0.1,i,x,u,x
OC1(c2cccc(C(F)(F)F)c2)CCN(Cc2nc(-c3cnccn3)no2)CC1,0.67,0%,6,3,0.4,i,-2.2,-1.3,-4
Cc1ccc(-c2nnc(-c3ccncc3)n2-c2ccc(C)cc2)cc1,0.68,-1%,x,x,x,x,0.8,x,-2
COc1cc2sc3cc(NCc4ccc(C)o4)ccc3c(=O)c2cc1OC,0.61,x,-18,-29,-8.0,i,2.8,2.9,42
Cc1ccccc1NC(=O)c1ccno1,0.71,x,4,11,-0.7,i,2.5,-0.7,-2
CN(C)S(=O)(=O)c1cccc(NC(=S)NC(=O)c2ccco2)c1,0.67,3%,7,-3,0.6,i,1.1,0.5,x
COc1ccccc1C(=O)NC(C)c1cccc2ccccc12 (stereo not drawn),0.7,-8%,-20,-32,-3.7,i,-2.0,-4.8,-16
Brc1cc2c(cc1/C=N/Nc1nc3ccccc3s1)OCO2,x,-5%,x,x,x,x,0.3,x,3
C[C@H](NC(=O)C[C@H]1CC[C@H]2[C@@H](COC[C@@H](O)CN2C)O1)c1ccccc1,x,x,7,8,3.7,i,x,-2.1,x
CCOc1cc(C(=O)OCc2ccc(OC)cc2)ccc1OCC(=O)N1CCOCC1,0.66,-1%,-9,-13,-0.8,i,-1.5,0.9,-15
CN(C)c1ccc(-c2nn3c(-c4ccccc4Cl)nnc3s2)cc1,0.66,-12%,x,x,x,x,2.7,x,-5
O=C(Nc1ccccc1N1CCOCC1)c1ccc([N+](=O)[O-])cc1,0.72,5%,x,x,x,x,-2.6,x,-7
Cc1nnc(NC(=O)c2cccc(S(=O)(=O)N3CCN(C)CC3)c2)s1,0.69,19%,6,13,1.5,i,-3.5,-17,-1
Cc1ccc(C(=O)C2CCNCC2)cc1,0.69,-8%,x,x,x,x,-1.8,x,x
COc1ccc(CN(C)C[C@@H]2Oc3ccc(NC(=O)Nc4c(C)noc4C)cc3CC(=O)N([C@@H](C)CO)C[C@H]2C)cc1,x,x,1,1,-4.2,i,x,1.2,x
OC(Cc1nc2ccccc2[nH]1)c1ccccc1Cl (stereo not drawn),0.69,-1%,11,1,-3.3,i,1.6,3.4,1

# By substructure: the compounds so far containing two or more sulfur atoms
SMILES,Ecoli growth,Vif TR-FRET,Ecoli rRNA inh,Ecoli rRNA inh OD600,Ecoli rRNA inh RFP,FGF22 binding,HNF4A DNA FP,MLL AF4-AF9 inh,ALR inh
c1csc(C(c2nnnn2C2CCCCC2)N2CCN(c3nc4ccccc4s3)CC2)c1 (stereo not drawn),0.72,0%,x,x,x,x,0.6,x,x
CN(C)S(=O)(=O)c1cccc(NC(=S)NC(=O)c2ccco2)c1,0.67,3%,7,-3,0.6,i,1.1,0.5,x
Cc1nnc(NC(=O)c2cccc(S(=O)(=O)N3CCN(C)CC3)c2)s1,0.69,19%,6,13,1.5,i,-3.5,-17,-1

# (further entries)
SMILES,Ecoli growth,Vif TR-FRET,Ecoli rRNA inh,Ecoli rRNA inh OD600,Ecoli rRNA inh RFP,FGF22 binding,HNF4A DNA FP,MLL AF4-AF9 inh,ALR inh
Cc1nc2ccccc2n1C1CCN(C(=O)Nc2ccccc2)CC1,0.61,4%,16,8,-0.3,i,1.5,-0.3,-6
O=C(NCCN1CCOCC1)c1cc2ccccc2oc1=O,0.64,0%,6,4,1.4,i,5.6,-0.2,-29
COc1ccc(C#Cc2ccc3c(c2)O[C@@H](CN(C)C(C)=O)[C@@H](C)CN([C@H](C)CO)S3(=O)=O)cc1,x,x,-3,-25,17,i,x,3.8,x
CN1CCc2c(sc(NC(=O)CS(=O)(=O)c3ccccc3)c2C(N)=O)C1,0.63,0%,12,9,2.0,i,-3.5,-0.9,-3
Fc1cccc(/C=N/n2c(C3CCCCC3)n[nH]c2=S)c1,x,-7%,-2,-3,2.3,i,-1.7,-2.4,x
Cc1ccccc1NC(=O)c1ccc2c(O)c(S(=O)(=O)c3ccccc3)c(=O)[nH]c2c1,0.7,-3%,18,18,3.2,i,1.5,-4.7,-8
Brc1ccccc1C1N=C(c2ccccc2)NO1 (stereo not drawn),0.69,x,-4,1,-1.2,i,0.0,0.5,4
O=C(O)c1ccccc1-c1ccccc1C(=O)Nc1ccccc1-c1ccccc1,0.67,x,-26,-59,6.6,i,1.9,0.9,-1
CN1C(=O)c2cc(NC(=O)c3ccccc3F)ccc2OC[C@@H]2O[C@H](CC(=O)NCc3ccc4c(c3)OCO4)CC[C@H]21,x,x,2,9,-1.5,i,x,0.3,x
COc1ccccc1NC(=O)N(C)C[C@H]1Oc2cc(Br)ccc2S(=O)(=O)N([C@H](C)CO)C[C@@H]1C,x,x,-2,-3,-1.7,i,x,-1.3&0.9,x
Cc1cc(C)n(-c2nnc(C)n2NS(=O)(=O)c2ccc(F)cc2)n1,0.62,u,9,14,-6.1,i,-2.8,0.0,x
C[C@@H]1CCCCO[C@H](CN(C)S(=O)(=O)c2cccs2)[C@@H](C)CN([C@@H](C)CO)C(=O)c2cc(NC(=O)CCCN(C)C)ccc2O1,x,x,-3,0,-0.8,i,x,4.0,x
CNC[C@H]1Oc2ncc(-c3ccccc3F)cc2C(=O)N([C@H](C)CO)C[C@H]1C,x,x,1,3,0.5,i,x,3.7,x
C[C@@H]1CN([C@@H](C)CO)C(=O)CCCn2nncc2CO[C@H]1CN(C)Cc1ccc2c(c1)OCCO2,x,x,6&1,15&1,-1.6&-2.7,i,1.8,-1.5&0.5&-0.7,x
COc1ccc(C(=O)c2c(O)cc(-c3ccc(OC)cc3)oc2=O)cc1,0.68,-5%,-27,-24,-22,i,0.7,-4.4,65
CCN(C[C@H]1N[C@@](C)(C(=O)OC)[C@H]2C(=O)N(Cc3ccccc3)C(=O)[C@@H]12)C(=O)c1ccc(C(C)(C)C)cc1,0.69,5%,-6,-8,8.7,i,-1.8,-1.9,x
Cc1ccc(CNC(=O)COc2cc(O)c3c(c2)OC(C)(C)CC3=O)cc1,0.66,x,x,x,x,i,3.5,3.3,x
C[C@@H](NC(=O)C[C@@H]1CC[C@@H](NC(=O)C2CCOCC2)[C@@H](CO)O1)c1ccccc1,x,x,-1,5,-2.4,i,x,-1.6,x
COc1ccccc1C(=O)Nc1c2c(nn1-c1cccc(C)c1C)CS(=O)C2 (stereo not drawn),0.67,2%,x,x,x,x,-0.1,x,1
O=C(c1cccnc1)N1CC(=O)N2[C@H](CO)[C@H](c3ccc(-c4ccccc4F)cc3)[C@H]2C1,x,x,1,12,0.3,i,x,-0.8,x
COc1ccc(C(=O)NCC(c2ccco2)N2CCOCC2)cc1 (stereo not drawn),x,-6%,10,7,0.1,i,-1.8,-4.4,x
Nc1ccc(SC(F)(F)F)cc1,0.69,4%,4,0,-0.5,i,1.4,1.3,x
O=C(CN1CCC(NC(=O)c2ccc(F)cc2)CC1)NCc1ccccc1F,0.63,1%,x,x,x,x,-2.5,x,-6
O=C(CCOc1ccccc1)N1CCN(S(=O)(=O)c2cccs2)CC1,0.72,-1%,x,x,x,x,-1.3,x,-5
CO[C@H]1CN(C)C(=O)c2ccc(NC(=O)C3CC3)cc2OC[C@@H](C)N(Cc2ccc(F)cc2)C[C@H]1C,x,x,-4,-3,-0.6,i,x,0.4,x
COc1ccc(C2N(c3ccc(Cl)cc3)C(=O)C3CCCN32)cc1 (stereo not drawn),0.71,4%,6,15,0.5,i,2.1,-0.5,-17
O=C(O)CSC(C(=O)Nc1ccc(Br)cc1)c1ccccc1 (stereo not drawn),0.66,2%,-10,-5,-1.5,i,-0.2,-1.5,-11
Fc1ccc(NCc2ccccc2F)cc1Cl,0.64,18%,-11,-1,1.8,i,-2.0,5.9,-3
COc1cccc(C(=O)NC(=S)Nc2ccccc2N2CCCCC2)c1,0.72,x,10,12,-0.8,i,3.9,4.4,3
CCN1C(=O)c2ccccc2S(=O)(=O)c2ccc(C(=O)N3CCOCC3)cc21,0.69,3%,-1,4,-0.7,i,-1.9,0.9,-12
O=C(C[C@H]1CC[C@@H](NC(=O)C2CC2)[C@H](CO)O1)NCC1CC1,x,x,2,3,-0.7,i,x,-0.6,x
CCN(CC)c1ccc(C=N/C(C#N)=C(\N)C#N)cc1,x,5%,x,x,x,x,28,x,u
C[C@@H]1CN([C@@H](C)CO)C(=O)CCCn2cc(nn2)CO[C@@H]1CN(C)Cc1cccc2c1OCCCO2,x,x,-1,0,-1.6,i,x,-0.5,x
